Source: PubChem
LANA-H2B inh: blocks KSHV LANA binding to histone H2A/H2B | Q9QR71 | cell-free LANA-H2A/H2B peptide, fluorescence polarization | inhibition, % (test concentration not listed) | 320,000 compounds, 0.6% hits | AID 2629; in the data active means inhibition mostly above about 10%, no sharp cut-off; inactive means mostly below about 6.7%;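 further: stock transfer was 7.5 nL into about 10 µL; 0% = median of vehicle wells and 100% = median of positive control wells; one replicate is shown; the record names a cut of 25% in any replicate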
E coli growth: blocks Escherichia coli growth. OD600 absorbance (no concentration beside the values). 330,000 compounds, 0.21% hits. AID 1053175. OD600, 23 h; hits give low values;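 active means OD600 absorbance below the run mean of sample wells minus 3.6 SD, in any replicate, cut at about 0.56 in these data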;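 further: stock transfer was 300 nL into about 60 µL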
A1 inh: inhibitors of the anti-apoptotic protein A1, read as caspase activation. MEF A1-2A-BIM cells, Caspase-Glo 3/7 luminescence, 3 h; percent of clofoctol response, vehicle zero. caspase activation, % (test concentration not listed). 330,000 compounds, 0.066% hits. AID 2462;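 active means over half of replicate activation scores above 10%, or exactly half above 10 with the replicate mean above 10; inconclusive means replicate mean below 10 yet half the replicates above 10; inactive means over half of replicates below 10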;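 further: wells of about 30 µL received 50 nL stock; many hits fall short of the cut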
Vif TR-FRET: inhibitors of Vif binding to APOBEC3G peptide, primary screen, biochemical, TR-FRET, GST-Vif 1-94, biotin-A3G peptide, dose response retest (AID 1117319) | 260,000 compounds, 0.57% hits | inhibition, %, or IC50 in µM where a hit was titrated | TR-FRET GST-Vif / biotin-A3G peptide binding; higher % means a stronger effect; test concentration not given here; strong numbers were not always called active;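 active means above the screen mean plus three standard deviations and confirmed in dose response; inconclusive means results disagree or hit not tested in dose response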;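 further: Vif residues 1-94 fused to GST binding biotinylated APOBEC3G peptide 110-148; 0% = full assay without inhibitor and 100% = GST in place of GST-Vif; retest series ran down from 100 µM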
UCH37 inh: inhibitors of human deubiquitinating enzyme UCH37; AID 588478; 330,000 compounds, 0.33% hits; purified proteasome/UCH37, Ub-AMC cleavage fluorescence; inhibition, % (no concentration beside the values);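 active means mean of two replicates above 20%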;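 further: 0% = compound-free wells with enzyme and 100% = wells lacking proteasome; stock transfer was 100 nL into about 20 µL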
Target sequence (Q9Y5K5 whole entry, looked up): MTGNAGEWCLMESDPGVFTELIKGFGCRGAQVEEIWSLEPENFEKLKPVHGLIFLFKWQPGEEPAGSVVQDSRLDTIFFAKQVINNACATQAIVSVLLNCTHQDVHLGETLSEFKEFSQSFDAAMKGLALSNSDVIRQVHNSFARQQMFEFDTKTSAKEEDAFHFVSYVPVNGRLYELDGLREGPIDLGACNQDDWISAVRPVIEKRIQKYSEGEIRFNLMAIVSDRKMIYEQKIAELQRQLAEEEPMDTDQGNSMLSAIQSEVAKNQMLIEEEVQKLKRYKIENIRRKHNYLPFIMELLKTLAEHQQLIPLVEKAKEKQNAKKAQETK
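Test system – human UCH37 enzyme supplied as purified proteasome complex · Incubation – 30 min preincubation with enzyme, 25 min cleavage at room temperature · Detection – AMC fluorescence from Ub-AMC cleavage, excitation 355 nm, emission 460 nm · Benchmarks – no-proteasome wells (full inhibition) and compound-free wells (no inhibition)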
HNF4A DNA FP: change in binding of human HNF4 alpha to DNA; HNF4a-FITC DNA binding, fluorescence polarization, 1 h; 360,000 compounds, 0.3% hits; activity change, % at 10 µM; AID 1224865; P41235; in the data active means activity change above about 30%, passing the limit was not always enough;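 further: controls were the assay level and a saturating level of protein; the project sought stronger binding though the title names inhibitors; some compounds called inactive have numbers as strong as hits; positive values seem to mean higher polarization but the record does not say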
Target sequence (P41235 whole entry, looked up): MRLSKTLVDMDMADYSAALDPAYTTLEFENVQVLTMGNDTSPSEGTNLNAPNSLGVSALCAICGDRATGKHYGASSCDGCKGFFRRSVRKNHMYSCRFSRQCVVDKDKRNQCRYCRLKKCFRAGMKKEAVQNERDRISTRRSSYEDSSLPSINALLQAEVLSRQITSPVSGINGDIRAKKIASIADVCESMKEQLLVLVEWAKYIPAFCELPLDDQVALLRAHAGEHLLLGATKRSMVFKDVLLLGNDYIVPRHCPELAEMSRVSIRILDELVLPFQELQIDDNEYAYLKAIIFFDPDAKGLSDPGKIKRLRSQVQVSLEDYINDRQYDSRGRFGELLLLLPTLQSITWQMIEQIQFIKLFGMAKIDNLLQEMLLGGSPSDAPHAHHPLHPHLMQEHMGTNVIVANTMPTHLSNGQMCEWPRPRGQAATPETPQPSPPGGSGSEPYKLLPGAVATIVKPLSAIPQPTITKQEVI
Beta2AR agonist: agonists of human beta-2 adrenergic receptor inducing internalization. P07550. Am2.2-beta2AR cells, FAP receptor internalization, flow cytometry; reference of the scale not given here. response, % (no concentration beside the values). 340,000 compounds, 0.43% hits;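 active means response above a set limit, near 3 SD of response in nonfluorescent compounds, cut at about 42% in these data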;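 further: stock transfer was 100 nL into about 11 µL; a reference agonist was the positive control; negative values mostly stem from fluorescent compounds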
* marks the source's active call; other numbers are inactive results; & = joins results of further samples. The order is random, and some 2.1% of all compounds hit somewhere here.

A first look, 2 compounds:
For CC1CCN(c2oc(-c3ccccc3Cl)nc2C#N)CC1 the results were LANA-H2B inh 3.4, E coli growth 0.76, A1 inh -0.4, Vif TR-FRET 15%, UCH37 inh -61, HNF4A DNA FP 2.5 and Beta2AR agonist 2.
O=C(O)CCCC(=O)Nc1ccc(Cl)c(Cl)c1 was read as LANA-H2B inh 0.1, E coli growth 0.76, A1 inh 0.2, Vif TR-FRET 3%, UCH37 inh -3.0, HNF4A DNA FP 2.5 and Beta2AR agonist 5.

All compounds of this part, from the first entry:
For CC1CCN(c2oc(-c3ccccc3Cl)nc2C#N)CC1 the results were LANA-H2B inh 3.4, E coli growth 0.76, A1 inh -0.4, Vif TR-FRET 15%, UCH37 inh -61, HNF4A DNA FP 2.5 and Beta2AR agonist 2.
O=C(O)CCCC(=O)Nc1ccc(Cl)c(Cl)c1 was read as LANA-H2B inh 0.1, E coli growth 0.76, A1 inh 0.2, Vif TR-FRET 3%, UCH37 inh -3.0, HNF4A DNA FP 2.5 and Beta2AR agonist 5.
`COc1ccc(CCNC(=O)CCc2ccc(S(=O)(=O)NCC(C)C)cc2)cc1` gave E coli growth 0.69, A1 inh -0.3, Vif TR-FRET -6%, UCH37 inh -0.3, HNF4A DNA FP 0.6 and Beta2AR agonist -6.
`CC(=O)c1c(C)nc(-c2ccc(Cl)cc2)nc1N` gave LANA-H2B inh 4.1, E coli growth 0.73, A1 inh -0.3, UCH37 inh 10, HNF4A DNA FP 0.5 and Beta2AR agonist -1.
For Cc1ccccc1NC(=O)NCCN1C(=O)C2C3C=CC(C3)C2C1=O (stereo not drawn) the results were LANA-H2B inh 7.1, E coli growth 0.72, A1 inh 0.7, Vif TR-FRET 4%, UCH37 inh 3.7, HNF4A DNA FP 5.7 and Beta2AR agonist 6.
Screening O=C(CN1CCC(NC(=O)Cc2ccccc2)CC1)Nc1cccc2ccccc12 returned LANA-H2B inh -3.0, E coli growth 0.69, A1 inh 0.2, Vif TR-FRET 0%, UCH37 inh 3.2, HNF4A DNA FP 6.1 and Beta2AR agonist -3.
`CCC(=O)c1ccc(OCC(=O)Nc2nc(C)cs2)cc1` gave LANA-H2B inh -0.2, E coli growth 0.7, A1 inh -4.0, Vif TR-FRET -2%, UCH37 inh 1.4, HNF4A DNA FP -1.4 and Beta2AR agonist 5.
CC(C)Oc1ccc2c(c1)OC(c1ccccc1)(C(F)(F)F)NC2=O (stereo not drawn) was read as E coli growth 0.71, A1 inh 0.6, Vif TR-FRET inconclusive, UCH37 inh 5.6, HNF4A DNA FP -1.4 and Beta2AR agonist -2.
For O=C(COc1cccnc1[N+](=O)[O-])Nc1cc(Cl)ccc1Cl the results were LANA-H2B inh 0.7, E coli growth 0.67, A1 inh -0.6, Vif TR-FRET -5%, UCH37 inh 1.9, HNF4A DNA FP -3.0 and Beta2AR agonist -17.
`N#CC1=C(N)C(C#N)(C#N)C(c2cccnc2)C2CCCC=C12` (stereo not drawn) gave LANA-H2B inh 5.5, A1 inh 0.2 and Vif TR-FRET inconclusive.
For O=C1C=CC(=O)N1c1ccc(Sc2ccc([N+](=O)[O-])cc2)cc1 the results were LANA-H2B inh 4.5, A1 inh -0.3 and Vif TR-FRET -33%.
C/C(=N\NC(=O)c1nnn(-c2nonc2N)c1CN1CCOCC1)c1ccc(CC(C)C)cc1 was read as LANA-H2B inh -1.2, A1 inh 1.0, HNF4A DNA FP 1.1 and Beta2AR agonist -2.
For CCOC(=O)Cc1nn(Cc2ccccc2)c(=O)c2ccccc12 the results were LANA-H2B inh 2.0, E coli growth 0.71, A1 inh 0.8, UCH37 inh 6.5, HNF4A DNA FP -2.7 and Beta2AR agonist -14.
`COc1ccc(-n2c(SCC(=O)N3CCN(c4ccccc4)CC3)nc3c(c2=O)SCC3)cc1` gave LANA-H2B inh -3.2, E coli growth 0.75, A1 inh -0.2, Vif TR-FRET 15%, UCH37 inh 4.5, HNF4A DNA FP -0.7 and Beta2AR agonist -12.
Screening COc1ccc(C(=O)NC(=S)NNC(=O)c2ccccc2C)cc1 returned LANA-H2B inh -0.6, E coli growth 0.68, A1 inh -0.1, UCH37 inh 2.2, HNF4A DNA FP -1.4 and Beta2AR agonist 1.
Screening Cc1c(C(=O)N(Cc2ccccc2)C2CCS(=O)(=O)C2)oc2ccccc12 (stereo not drawn) returned LANA-H2B inh -3.2, E coli growth 0.67, UCH37 inh 4.6, HNF4A DNA FP 2.7 and Beta2AR agonist -2.
`Cc1nc2nc(CSc3nnc(C)s3)cc(=O)n2[nH]1` gave LANA-H2B inh 1.9, E coli growth 0.7&0.68, A1 inh -0.2, Vif TR-FRET 1%&-4%, UCH37 inh -2.2&1.9, HNF4A DNA FP 4.8&-0.8 and Beta2AR agonist 1&-2.
Screening COc1ccccc1NC(=S)NNC(=O)c1nn(C)cc1Cl returned LANA-H2B inh 1.1, E coli growth 0.7, A1 inh 1.5, Vif TR-FRET 13%, UCH37 inh 0.5, HNF4A DNA FP 7.3 and Beta2AR agonist 3.
CCN1CCN(c2ccc(NC(=O)c3cc4ccccc4cc3OC)cc2C)CC1 was read as LANA-H2B inh 2.3, A1 inh 0.2, HNF4A DNA FP -1.0 and Beta2AR agonist 3.
For O=C(Cn1c(NCCO)nc2ccccc21)N1CCN(Cc2ccccc2)CC1 the results were LANA-H2B inh 7.3, E coli growth 0.68, A1 inh 1.0, UCH37 inh 3.0, HNF4A DNA FP -0.7 and Beta2AR agonist 2.
For Cc1ccccc1N1C(=O)c2ccccc2C1O (stereo not drawn) the results were LANA-H2B inh -7.3, E coli growth 0.65, A1 inh 0.5, Vif TR-FRET -5%, UCH37 inh 0.1, HNF4A DNA FP 0.9 and Beta2AR agonist -3.
`CC(=O)c1cc(CN2CCC(n3nccc3NC(=O)c3ccccc3)CC2)cs1` gave LANA-H2B inh 1.9, E coli growth 0.71, A1 inh 0.1, Vif TR-FRET 1%, UCH37 inh -2.2, HNF4A DNA FP 4.0 and Beta2AR agonist -5.
O=C(/C=C/c1ccccc1)NCC(=O)N/N=C/c1ccco1 was read as LANA-H2B inh -17, A1 inh -0.7, HNF4A DNA FP 4.8 and Beta2AR agonist 4.
Screening COc1ccc(OCC(=O)N/N=C2\CCCCc3ccccc32)cc1 returned LANA-H2B inh -1.1, A1 inh 0.7, HNF4A DNA FP 1.1 and Beta2AR agonist -3.
CCOC(=O)c1sc(NC(=O)CSc2nc3c(c(-c4ccc(OC)cc4)c2C#N)CCCC3)c(C#N)c1C was read as LANA-H2B inh 9.5, E coli growth 0.73, A1 inh 0.4, Vif TR-FRET -14%, UCH37 inh 0.9, HNF4A DNA FP -2.1 and Beta2AR agonist -2.
For Nc1c(C(=O)Nc2ccccc2)sc2nc(-c3cccnc3)ccc12 the results were LANA-H2B inh -6.0, E coli growth 0.64, A1 inh -0.9, Vif TR-FRET -3% and UCH37 inh 0.3.
`COc1ccc(NC(=O)Nc2ccc(Cc3ccncc3)cc2)cc1OC` gave LANA-H2B inh 3.3, E coli growth 0.72, A1 inh 0.3, Vif TR-FRET 9%, UCH37 inh 4.0, HNF4A DNA FP 2.7 and Beta2AR agonist -21.
`O=S(=O)(c1ccc2nc(COc3ccccc3)[nH]c2c1)N1CCOCC1` gave LANA-H2B inh 8.5, E coli growth 0.68, A1 inh -0.6, Vif TR-FRET 13%, UCH37 inh 2.5, HNF4A DNA FP -3.8 and Beta2AR agonist -3.
For CC(=O)N1CCOc2ccc(S(=O)(=O)NC[C@H]3O[C@@H](n4cnc5c(N)ncnc54)[C@H](O)[C@@H]3O)cc21 the results were E coli growth 0.74, Vif TR-FRET -10%, UCH37 inh -3.8, HNF4A DNA FP -2.4 and Beta2AR agonist -4.
For CCc1ccc(C(C(=O)NC2CCCC2)N(CCOC)C(=O)CCC(=O)Nc2cc(C)on2)cc1 (stereo not drawn) the results were LANA-H2B inh -1.9, E coli growth 0.63, A1 inh -0.6, UCH37 inh 1.8, HNF4A DNA FP 1.9 and Beta2AR agonist 10.

Fetched one by one from the entries so far:
For Nc1c(C(=O)Nc2ccccc2)sc2nc(-c3cccnc3)ccc12 the results were LANA-H2B inh -6.0, E coli growth 0.64, A1 inh -0.9, Vif TR-FRET -3% and UCH37 inh 0.3.
`COc1ccc(NC(=O)Nc2ccc(Cc3ccncc3)cc2)cc1OC` gave LANA-H2B inh 3.3, E coli growth 0.72, A1 inh 0.3, Vif TR-FRET 9%, UCH37 inh 4.0, HNF4A DNA FP 2.7 and Beta2AR agonist -21.
Screening COc1ccc(OCC(=O)N/N=C2\CCCCc3ccccc32)cc1 returned LANA-H2B inh -1.1, A1 inh 0.7, HNF4A DNA FP 1.1 and Beta2AR agonist -3.

(continued)
`CCOC(=O)c1c(-c2ccccc2)csc1NC(=O)c1nn(CC)cc1Br` gave LANA-H2B inh -1.8, E coli growth 0.75, A1 inh 0.3, Vif TR-FRET -5%, UCH37 inh -101, HNF4A DNA FP 1.0 and Beta2AR agonist 1.
Screening Cc1nc(NC(=O)C2CC2)sc1C(=O)N1CCCCC1 returned LANA-H2B inh -8.5, E coli growth 0.69, A1 inh 0.4, Vif TR-FRET 4%, UCH37 inh 0.3, HNF4A DNA FP 1.1 and Beta2AR agonist 1.
Screening Cc1cc(C(C)(C)C)oc1C(=O)N(CC(=O)NC1CCCC1)Cc1ccccc1 returned LANA-H2B inh -2.5, E coli growth 0.67, A1 inh 0.1, Vif TR-FRET 16%, UCH37 inh -1.6, HNF4A DNA FP 1.1 and Beta2AR agonist 2.
`COc1ccc(-c2csc(Nc3ccc(S(N)(=O)=O)cc3)n2)cc1OC` gave LANA-H2B inh -14, E coli growth 0.71, A1 inh 1.0, UCH37 inh -22, HNF4A DNA FP 3.2 and Beta2AR agonist 19.
`COc1ccccc1N1CCN(/N=C\c2ccc(C)o2)CC1` gave LANA-H2B inh 0.6, A1 inh -0.9, Vif TR-FRET 4%, HNF4A DNA FP -1.1 and Beta2AR agonist 7.
Cc1cccc(NC(=O)CCSc2ccccc2)c1C was read as LANA-H2B inh -4.2, E coli growth 0.7, A1 inh 0.1, Vif TR-FRET 1%, UCH37 inh 5.1, HNF4A DNA FP 2.3 and Beta2AR agonist 10.
For COc1cccc(NC(=O)CCc2ccccc2)c1 the results were LANA-H2B inh -6.9, E coli growth 0.69, A1 inh -5.5, UCH37 inh 3.2, HNF4A DNA FP 1.3 and Beta2AR agonist 2.
For Cn1ccnc1SCCC#N the results were LANA-H2B inh 1.3, E coli growth 0.69, A1 inh -0.3, Vif TR-FRET 14%, UCH37 inh 3.8, HNF4A DNA FP -7.7 and Beta2AR agonist 6.
For CCN(CC)c1ccc(S(=O)(=O)N2CCCCC2)cc1NC(=O)CSCc1c(C)noc1C the results were E coli growth 0.64, UCH37 inh -1.6, HNF4A DNA FP -1.0 and Beta2AR agonist 7.
`Cc1c(S(=O)(=O)N2CCCC2)c(=O)n(C)c(=O)n1C` gave LANA-H2B inh 2.3, E coli growth 0.7, A1 inh -0.4, Vif TR-FRET 12%, UCH37 inh 2.2, HNF4A DNA FP -0.8 and Beta2AR agonist 3.
For Cc1cc(C)c2nc(NC(=O)C3CC(=O)N(Cc4ccco4)C3)sc2c1 (stereo not drawn) the results were LANA-H2B inh 1.5, E coli growth 0.63, A1 inh 0.2, Vif TR-FRET -4%, UCH37 inh 2.2, HNF4A DNA FP 1.7 and Beta2AR agonist 12.
For O=C(N/N=C/c1ccc2cccnc2c1)c1ccco1 the results were LANA-H2B inh -4.3, A1 inh 1.0, Vif TR-FRET 19%, HNF4A DNA FP -0.6 and Beta2AR agonist -12.
